Source: PubChem BioAssay (National Center for Advancing Translational Sciences (NCATS))
StopGo reporter – High Throughput Screening for Foot and Mouth Disease Virus Antivirals; human cells with a luciferase reporter of 2A StopGo recoding; control for the full effect not named in the record; AID 1159524, 2015; Potency, µM (top dose mostly 57.9 µM), for inactives: at the top dose signal change, negative = less light; 1.2% of 410,000 active; active = well fitted falling curve with a large enough effect; inconclusive = small, poorly fitted or top-dose-only effect; inactive = no such curve, though single readings can be large or run the other way; tested in HEK293T cells; note: % is set by controls: 0 for no effect and ±100 for the full control effect; nearly all actives have a fitted effect of over 45% in size; luciferase light after 4 h
SARS PLpro yeast – qHTS of Yeast-based Assay for SARS-CoV PLP; Potency, µM (titrated, usually from 32.9 µM), for inactives: at the highest dose activity, positive = growth rescue; 0.19% of 330,000 active; S. cerevisiae expressing SARS-CoV PLpro, growth rescue; control for the full effect not named in the record; AID 485353, 2010; active means well fitted rising curve with a large enough effect; inconclusive means small, poorly fitted or top-dose-only effect; inactive means no such curve, though single readings can be large or run the other way; note: 0% is about no effect; nearly all actives have a fitted effect of over 55% in size; growth read by luminescence after 48 h
RE007 growth inh – qHTS Assay for Inhibitors of the HIV-1 protein Vpr; S. pombe RE007 Vpr strain, BacTiter-Glo ATP luminescence, 24 h; control for the full effect not named in the record; Potency, µM (titrated, usually from 92.2 µM), inactives show at the highest dose activity change, negative = less growth; 0.21% of 360,000 active; AID 651644, 2012; active = well fitted falling curve with a large enough effect; inconclusive = small, poorly fitted or top-dose-only effect; inactive = no such curve, though single readings can be large or run the other way;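 note: % is set by controls: 0 for no effect and ±100 for the full control effect; nearly all actives have a fitted effect of over 50% in size; the assay follows cell death caused by Vpr and the record does not say whether a fall means rescue or toxicity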
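Fission yeast RE007 carrying one integrated HIV-1 vpr copy, seeded at OD 0.01 in PMG+AL medium with 23 nL pinned compound. Grown 24 h at 30 degrees; viability read by BacTiter-Glo luminescence after 5 min.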
Marburg entry inh – qHTS for inhibitors of binding or entry into cells for Marburg Virus; 1.8% of 300,000 active; Marburg virus pseudotyped entry inhibition, cell reporter; control for the full effect not named in the record; about a third of the inactives were read at about 46 µM; Potency, µM (series often up to 37.8 µM), for inactives: at the top dose activity change, negative = inhibition, most hits filed as inhibitors; active = well fitted inhibition curve with a large enough effect; inconclusive = small, poorly fitted or top-dose-only effect, or effect the other way; inactive = flat fitted curve, though single readings scatter; tested in HEK293 cells; about a fifth of its hits are not listed in these tables; note: % is set by controls: 0 for no effect and ±100 for the full control effect; luciferase read-out
LASV entry inh – qHTS for Inhibitors of binding or entry into cells for Lassa Virus; Lassa virus pseudotype entry inhibition, cell reporter; control for the full effect not named in the record; Potency, µM (doses to about 37.9 µM), for inactives: at the top dose activity change, negative = inhibition, most hits filed as inhibitors; 1.2% of 300,000 active; AID 540256, 2011; active means well fitted inhibition curve with a large enough effect; inconclusive means small, poorly fitted or top-dose-only effect, or effect the other way; inactive means flat fitted curve, though single readings scatter; tested in HEK293 cells; note: % is set by controls: 0 for no effect and ±100 for the full control effect; nearly all actives have a fitted effect of over 50% in size; luciferase read-out
NS1 inh – qHTS Assay for Inhibitors of Influenza NS1 Protein Function. S. cerevisiae slowed by influenza A NS1, growth recovery by OD600. Potency, µM (series often up to 46.1 µM), inactives show at the top dose activity, positive = more growth. 0.4% of 270,000 active. AID 2326, 2010; active means well fitted rising curve with a large enough effect; inconclusive means small, poorly fitted or top-dose-only effect; inactive means no such curve, though single readings can be large or run the other way; note: nearly all actives have a fitted effect of over 50% in size
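In this qHTS, NS1 from influenza A is expressed in budding yeast, where it slows growth. Cells are switched from glucose to 2% galactose medium (pH 6.0, -URA), treated with compound, and growth recovery is read at OD600.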
Cruzain inh Det – qHTS Assay for Promiscuous and Specific Inhibitors of Cruzain (with detergent); Cruzipain (Trypanosoma cruzi), P25779; purified cruzain, Z-FR-AMC fluorescence, 0.01% Triton; Potency, µM, without a hit: max response, negative = inhibition, usual class: inhibitors; 0.43% of 200,000 active;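 note: plate controls were neutral wells for no effect and buffer without enzyme for full effect; nearly all actives have a fitted effect of over 40% in size; top concentration of the series not given in the record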
Target sequence (P25779 123-467 limits assumed): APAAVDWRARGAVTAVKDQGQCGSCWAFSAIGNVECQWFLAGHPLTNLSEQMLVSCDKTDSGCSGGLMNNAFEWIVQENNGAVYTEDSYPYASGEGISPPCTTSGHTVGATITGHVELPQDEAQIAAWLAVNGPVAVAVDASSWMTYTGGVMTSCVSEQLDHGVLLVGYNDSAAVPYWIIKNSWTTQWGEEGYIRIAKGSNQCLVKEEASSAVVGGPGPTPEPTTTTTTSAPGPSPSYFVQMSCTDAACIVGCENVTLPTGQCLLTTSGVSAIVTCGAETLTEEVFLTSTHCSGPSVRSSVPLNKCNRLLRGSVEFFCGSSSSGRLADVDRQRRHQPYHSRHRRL
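Sodium acetate buffer (100 mM, pH 5.5) containing 5 mM DTT and 0.01% Triton X-100 hosted 1.5 nM cruzain and test compound for 15 min at room temperature. Cleavage of 2 uM Z-FR-AMC was then tracked by fluorescence.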
Cruzain noTriton – qHTS Assay for Promiscuous and Specific Inhibitors of Cruzain (without detergent); 2.3% of 200,000 active; purified cruzain, Z-FR-AMC fluorescence, no detergent; AID 1476, 2009; Potency, µM, without a hit: max response, negative = inhibition, actives largely listed as inhibitors;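 note: plate controls were enzyme without inhibitor for no effect and buffer without enzyme for full effect; nearly all actives have a fitted effect of over 40% in size; top concentration of the series not given in the record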
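Detergent-free condition (0.00005% Triton X-100) in acetate buffer pH 5.5 with DTT. 1.5 nM enzyme and compound were pre-mixed 15 min, then 2 uM Z-FR-AMC substrate added; reaction progress from fluorescence change between first and third reads (60 s).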
The depositor's hits bear a star; ? = inconclusive; nt = not tested or not shown; ! = not confirmed by another sample; [ ] = dose if it differs, or a comment. Unless noted, calls come from the whole dose curve; as a rule, active = well fitted curve in the direction sought with a large enough effect; inconclusive = small, poorly fitted or top-dose-only effect, or another doubt; inactive = no such curve, though single readings can be large; an effect the other way counts as inactive or inconclusive. Potency is the fitted concentration of half-maximal effect. Rows are unselected; any-hit rate near 4.7%.

SMILES | StopGo reporter | SARS PLpro yeast | RE007 growth inh | Marburg entry inh | LASV entry inh | NS1 inh | Cruzain inh Det | Cruzain noTriton
CCCN1CCN(CCCNC(=O)Cn2nc(CC)n3c(cc4occc43)c2=O)CC1 | 15% | nt | nt | 6%[46.1 µM] | 4%[46.1 µM] | nt | -14% | -13%
CCn1ccnc1CN(C)C(=O)c1cc(COc2ccccc2SC)on1 | 43%[activator] | 1% | -12% | 18% | 6% | 0% | nt | nt
COc1ccc(C2/C=C\CN(C(=O)C3CC3)CC(=O)N2Cc2ccc(F)cc2)cc1 (stereo not drawn) | -11% | -3% | 1% | nt | nt | ? | nt | nt
CC(=O)Nc1ccc(S(=O)(=O)Oc2ccc3c(c2)C(C)=CC(C)(C)N3)cc1 | nt | 6% | nt | ? | 0.82µM* | -3% | -6.9% | 26%
CC(=O)Nc1ccc(NC(=O)C2CCCN2S(=O)(=O)c2cccc3nsnc23)cc1 (stereo not drawn) | -7% | 1% | -6% | -1%[46.1 µM] | 3%[46.1 µM] | nt | nt | nt
N/C(=N\O)c1ccc(NC(=O)c2ccc(Br)o2)cc1 | 28% | -3% | ? | -3% | 5% | 1% | 4.1% | -3%
COc1cc2c(cc1NC(=O)/C=C/c1cc(OC)c(OC)c(OC)c1)oc1ccccc12 | ? | 5% | -2% | 8.9µM* | ? | 12% | -5.1% | ?
Cc1cccnc1NC(=O)CCCN1C(=O)c2ccccc2C1=O | nt | 1% | -17% | 5% | 1% | -17% | -2.3% | 0%
CN1CCN(C(=O)c2ccccc2NC(=O)c2ccccc2)CC1 | -7% | 2% | 4% | -25%[46.1 µM] | ? | -14% | nt | nt
Cc1ccc(S(=O)(=O)N(CC(O)Cn2c3ccccc3c3ccccc32)c2cccc(C(=O)NCCO)c2)cc1 (stereo not drawn) | ? | nt | nt | ? | ? | nt | -12% | ?
CCc1nnc2c(N(C)S(=O)(=O)c3ccc(C)cc3)nc3ccccc3n12 | ? | -1% | 5% | 5%[46.1 µM] | 11%[46.1 µM] | 12% | nt | nt
O=C1CCNc2c(Cl)cccc21 | -5% | 0% | -12% | 18%[46.1 µM] | 0%[46.1 µM] | 0% | nt | nt
COc1cccc(NC(=O)CN(C)C(=O)c2cc(-c3ccccc3)nn2-c2ccccc2)c1 | -18% | 11% | 3% | 8% | -11% | nt | nt | nt
O=C(Nc1ccccn1)C12CC3CC(C1)CC(C(=O)Nc1ccccn1)(C3)C2 | ? | 1% | 1% | ? | 3% | -18% | 0.7% | -4%
O=C1NC[C@@H](Cc2ccc(O)cc2)N(CCc2cccc3ccccc23)C1=O | -1% | 1% | 9% | nt | nt | -1% | nt | nt
O=C(O)CCCn1cc(NC(=O)COc2ccc([N+](=O)[O-])cc2)cn1 | 8% | 1% | 11% | 20%[46.1 µM] | 0%[46.1 µM] | nt | nt | nt
O=c1[nH]c(/C=C/c2ccc(Cl)cc2Cl)c([N+](=O)[O-])c(=O)[nH]1 | -4% | 8% | 1% | nt | nt | -13% | nt | nt
CCOC(=O)c1[nH]c2c(c1Cc1ccccc1OC)C(=O)CC(c1ccc(OCC)cc1)C2 (stereo not drawn) | -4% | nt | nt | -5%[46.1 µM] | 2%[46.1 µM] | nt | -2.9% | -7%
O=C(O)c1ccc2c(c1)-c1nc3ccccc3n1C2=O | -11% | 14% | 11% | ? | -2% | -3% | 0.7% | -2%
COc1cccc(NC(=O)CSc2nncn2-c2ccccn2)c1 | -2% | 3% | 0% | 5% | 10% | 9% | -2.8% | 7%
CCOC(=O)c1c(NC(=O)CCC(=O)O)sc2c1CC(C)(C)OC2 | 3% | 1% | 1% | -4%[46.1 µM] | -5% | -5% | nt | nt
CCOC(=O)c1cc2c(=O)[nH]ccc2nc1C(F)(F)F | 10% | 0% | 21% | 24%[46.1 µM] | -2% | 1% | nt | nt
CCC(C)NC(=S)Nc1ccc2nc(N3CCN(CC)CC3)cc(C)c2c1 (stereo not drawn) | 1% | 1% | -5% | nt | nt | -8% | nt | nt
COc1ccc(C(CNC(=O)C(=O)Nc2ccc3c(c2)OCO3)N2CCN(C)CC2)cc1 (stereo not drawn) | -10% | nt | -17% | ? | -1% | nt | nt | nt
O=C(N/N=C/c1ccc([N+](=O)[O-])o1)c1cc(-c2cccc(Br)c2)nc2ccccc12 | -19% | 4% | 13% | ? | ? | 12% | -3.3% | ?
O=C(CN1CCC(C(=O)c2cccc(F)c2)CC1)NCc1cccs1 | -19% | 2% | 9% | 6% | ? | 0% | -6.0% | -3%
Cc1ccc(C)c(-n2c(CNC(=O)c3ccco3)nnc2SCC(=O)N2CCc3ccccc32)c1 | -10% | -1% | -19% | -30% | -16% | 0% | 2.4% | ?
O=C(/C=C/c1cccs1)c1ccc(N2CCOCC2)cc1 | -24% | -4% | -24% | nt | nt | -5% | nt | nt
Cn1cc(CN2CCC(Oc3ccc(C(=O)N4CCCCC4)cc3)CC2)cn1 | -18% | 2% | -1% | ? | 7% | 8% | nt | nt
Cc1nc2cc(-c3ccccc3)nn2c(C)c1CCC(=O)N1CCN(c2ccc(F)cc2)CC1 | -19% | nt | nt | -7%[46.1 µM] | 13%[46.1 µM] | nt | -1.9% | 1%
CCn1c(=O)c2c(nc3n2CC(C)CN3CCc2ccccc2)n(C)c1=O (stereo not drawn) | ? | 10% | -1% | ? | ? | -45% | -3.0% | 10%
CCC1=Nc2cc(C(=O)NCCN3CCCC3)ccc2Sc2ccc(C)cc21 | -12% | -2% | -2% | nt | nt | -2% | nt | nt
Cc1ccc(NC(=O)CN2c3cccc4cccc(c34)S2(=O)=O)cc1 | -27% | 1% | 21% | ? | -7% | nt | nt | nt
Cc1ccc(C)c(CSc2nc3ccncc3n2CC(=O)Nc2ccc(C)c(C)c2)c1 | nt | 3% | nt | -33% | 8% | 12% | -7.7% | ?
O=C(O)Cc1ccc(NC(=O)c2ccc(Cl)c(Cl)c2)cc1 | -29% | -1% | -2% | ? | -8%[46.1 µM] | 1% | nt | nt
CC1CCCCC1NC(=O)C1CCN(c2c3c(nc4ncnn24)CCC3)CC1 (stereo not drawn) | -29% | ? | -8% | -26% | 4% | 17% | nt | nt
CC(/C=N/N1CCN(c2ccccn2)CC1)=C\c1ccccc1 | 10% | -31% | -10% | 0% | 0% | 3% | -1.9% | ?
Cc1ccc(S(=O)(=O)NCC(=O)OCC(=O)NCc2ccco2)cc1 | -12% | 1% | 5% | -1% | 10% | nt | nt | nt
COc1ccc(C)cc1-n1c(SCC(=O)Nc2cc(C)on2)nc2sc(C)c(C)c2c1=O | -7% | 3% | -2% | -25% | -16% | 20% | -1.0% | 6%
O=c1cc[nH]c2c1ccc1c(=O)cc[nH]c12 | 31%[activator] | 12% | -2% | ? | 7% | 7% | nt | nt
O=C(CSCc1ccccc1F)NCc1ccccc1 | 79%[activator] | 1% | 7% | ? | nt | nt | nt | nt
COCc1ccc(CN2CCc3c([nH]c4ccccc34)C2C(C)(C)C)o1 (stereo not drawn) | -17% | -2% | -6% | ? | ? | 3% | nt | nt
COC(=O)c1ccc(C2C(C(=O)Nc3ccccc3)=C(C)Nc3nc4ccccc4n32)cc1 (stereo not drawn) | -20% | nt | nt | 3%[46.1 µM] | -20%[46.1 µM] | nt | -3.6% | -7%
Cc1ccc(-c2nnc(Nc3cccc(Cl)c3)c3ccccc23)cc1S(=O)(=O)N1CCOCC1 | -12% | nt | nt | nt | -29%[46.1 µM] | nt | -2.8% | 3%
Cc1cc(C)cc(NC(=O)c2ccccc2CC[N+](=O)[O-])c1 | 0% | 1% | -14% | 5% | 6% | 19% | 0.3% | 3%
O=c1[nH]c(CSc2ncnc3sccc23)nc2cc(C(F)(F)F)ccc12 | -8% | 2% | -8% | -8%[46.1 µM] | -11% | 1% | nt | nt
O=C(O)CCc1ccc(-c2ccccc2)n1CC(=O)Nc1ccccc1C(F)(F)F | -18% | nt | nt | 1%[46.1 µM] | -1%[46.1 µM] | nt | -5.3% | 4%
Cc1sc2nc(CN3CCCC3)nc(N3CCN(S(=O)(=O)c4cccs4)CC3)c2c1C | -7% | 0% | 9% | 15µM*! | -7% | 10% | 0.0% | 16µM*
COc1cccc(NC(=S)N(CCC(C)C)C(C)c2ccncc2)c1 (stereo not drawn) | 9% | -1% | -11% | nt | nt | -5% | nt | nt
COC(=O)C1CCN(C(=O)c2cc(OC)c(OC)c(OC)c2)CC1 | nt | 3% | -10% | 23% | 18% | 7% | 1.1% | 3%
Cn1c(C(=O)NCCc2ccccc2)cc(=O)n(C)c1=O | 3% | 0% | 0% | 6% | 0% | nt | nt | nt
CCCCCN(C(=O)CCC(=O)OCC(=O)NCc1ccc(OC)cc1)c1c(N)n(CCCC)c(=O)[nH]c1=O | 0% | 2% | -17% | 1% | -2% | -10% | nt | nt
CCN(CC)C(=O)c1sc2nc(Cc3ccccc3)[nH]c(=O)c2c1C | 0% | 0% | 1% | ? | nt | 0% | nt | nt
O=C(NC1CCCC1)c1cc(-c2cccc(Cl)c2)on1 | 21% | -8% | 6% | -1%[46.1 µM] | ? | -20% | nt | nt
CN(C)C(CNC(=O)c1c(F)cccc1Cl)c1ccco1 (stereo not drawn) | 11% | 0% | 0% | ? | nt | 9% | nt | nt
N/C(=N\[N+](=O)[O-])N1CCN(C(=O)c2ccccn2)CC1 | -7% | 2% | -4% | 7% | 14% | -1% | nt | nt
O=C(CN1CCC(C(O)(c2ccccc2)c2ccccc2)CC1)Nc1cc(Cl)ccc1Cl | nt | 9% | 9% | ? | 8.2µM* | -24% | -9.8% | 7%
O=C(N/N=C/c1ccc([N+](=O)[O-])cc1)c1ccc(COc2ccccc2-c2ccccc2)cc1 | -19% | 1% | -4% | 4%[46.1 µM] | -15% | nt | nt | nt
